# NPR1 antag = blocks ANP-stimulated signaling of human Npr1 receptor | Potency, µM (highest dose often 46.3 µM), without a hit: at the top dose activity change, negative = inhibition, most hits filed as inhibitors | HEK293 hNpr1 GloSensor cGMP, ANP-stimulated luminescence | actives 1.6% (n = 76,000) | P16066; active = well fitted inhibition curve with a large enough effect; inconclusive = small, poorly fitted or top-dose-only effect; inactive = no such curve, though single readings can be large or run the other way;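 also: nearly all actives have a fitted effect of over 60% in size; nearly all hits also lower the signal before the agonist is added; a reference antagonist and vehicle were the controls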
# Target sequence (P16066 whole entry, looked up): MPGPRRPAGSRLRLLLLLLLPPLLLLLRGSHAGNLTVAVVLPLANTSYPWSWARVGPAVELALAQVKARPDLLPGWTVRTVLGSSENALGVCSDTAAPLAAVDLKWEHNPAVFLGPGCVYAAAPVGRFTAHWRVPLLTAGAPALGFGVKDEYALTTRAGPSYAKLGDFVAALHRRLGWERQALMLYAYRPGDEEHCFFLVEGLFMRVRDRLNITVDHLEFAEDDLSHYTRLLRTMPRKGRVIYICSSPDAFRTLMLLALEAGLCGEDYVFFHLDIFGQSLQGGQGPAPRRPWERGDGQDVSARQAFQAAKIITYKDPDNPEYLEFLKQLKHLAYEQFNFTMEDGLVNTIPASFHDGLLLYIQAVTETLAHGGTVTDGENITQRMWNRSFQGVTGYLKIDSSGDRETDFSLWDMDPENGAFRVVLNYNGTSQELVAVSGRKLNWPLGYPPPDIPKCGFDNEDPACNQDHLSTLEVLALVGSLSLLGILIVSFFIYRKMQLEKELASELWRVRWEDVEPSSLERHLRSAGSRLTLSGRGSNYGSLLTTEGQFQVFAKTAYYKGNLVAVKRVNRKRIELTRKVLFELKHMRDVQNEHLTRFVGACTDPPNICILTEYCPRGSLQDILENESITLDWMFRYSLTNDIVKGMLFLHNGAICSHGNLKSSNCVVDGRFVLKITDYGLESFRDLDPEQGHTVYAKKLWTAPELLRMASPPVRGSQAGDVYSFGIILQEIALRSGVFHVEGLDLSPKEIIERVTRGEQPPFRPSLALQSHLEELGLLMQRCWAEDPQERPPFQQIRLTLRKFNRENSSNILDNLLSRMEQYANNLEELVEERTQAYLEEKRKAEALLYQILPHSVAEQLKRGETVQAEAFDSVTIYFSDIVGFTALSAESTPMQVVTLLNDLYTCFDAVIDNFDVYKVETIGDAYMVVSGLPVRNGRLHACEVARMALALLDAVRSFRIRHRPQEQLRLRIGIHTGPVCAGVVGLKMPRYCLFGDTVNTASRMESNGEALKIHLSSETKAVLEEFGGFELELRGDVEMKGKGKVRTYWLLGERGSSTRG
#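 HEK293 cells stably expressing human Npr1 and cGMP GloSensor pGS-40F, loaded 2 h with 2% GloSensor reagent, given compound 30 min at room temperature. Luminescence read before and 20 min after 0.1 nM hNppA.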
# Starred values were filed as active, the others as inactive; ? = inconclusive; & = joins results of further samples; [ ] = remark or other dose. % is scaled to controls: 0 for no effect and ±100 for the full control effect; potency is read from the fitted curve at half-maximal effect. Only part of the results is shown (hit frequency here may not be typical).
SMILES,NPR1 antag
O=C(c1cccc(F)c1)N1CCC2(CC1)OCC(C(=O)N1CCCC1)N2C(=O)c1ccco1 (configuration not stated),7%
O=C(NC(C(=O)N1CCCCC1)C1CCN(C(=O)c2ccccc2F)CC1)c1ccccc1 (configuration not stated),-1%
Cc1cc(C(=O)N2CC[C@H](NS(=O)(=O)c3cccs3)C[C@H]2C(=O)N[C@@H](Cc2cccs2)C(N)=O)n(C)n1,4%
Cc1cccc(N2CCN(C(=O)c3ccc4c(c3)N(C)C3CCCCN3C4=O)CC2)c1 (configuration not stated),0%
COCc1cc(C[C@@H]2CC[C@H](O)[C@@H](CNCc3ccccc3)O2)no1,-3%[70.6 µM]
COc1ccccc1N1CCN(c2ncccc2CNC(=O)C2COC(=O)N2)CC1 (configuration not stated),6%
Cc1cc(C2CC(C(=O)NCc3ccco3)CN(C(=O)NC(C)C)C2)ccc1F (configuration not stated),-1%
CCCNC(=O)N1CC(Oc2cccc(-c3nc(-c4ccccc4)no3)c2)C1,-2%
CCC1Oc2ccc(NS(=O)(=O)c3ccccc3)cc2CN(Cc2ccc(F)cc2)C1=O (configuration not stated),-5%
O=C(Cn1cccc1-c1nc(-c2ccc(F)cc2)no1)Nc1cccc(F)c1,-7%
CC(C)=CCC1(C(=O)O)CCCN(C(=O)c2cn(C)nc2C)C1 (configuration not stated),0%
COc1cccc(C(=O)N2CCC(c3nn(-c4ccccc4)c(=O)[nH]3)CC2)c1,-8%
Cc1ccc(C2Cn3nnc(-c4nc(-c5ccc(F)c(F)c5)no4)c3CO2)c(C)c1 (configuration not stated),-1%
c1cncc(CCn2ccnc2-c2cc3n(n2)CCCNC3)c1,7%
O=C(c1cncc(N2CCC3(CCCNC3=O)C2)n1)N1CCOCC1 (configuration not stated),5%
CCOCCCNC(=O)N1CCn2nnc(CCC(=O)N3CCOCC3)c2C1,1%
CCOCc1nc(C2CCCN(C(=O)c3ccc(OC)nc3OC)C2)no1 (configuration not stated),0%
CC(C)NS(=O)(=O)c1cc(C(=O)O)cc(-c2cccc3c2OCC3)c1,0%
COc1ccccc1NC(=O)Cn1c(-c2ccc(Cl)cc2)nc(C)cc1=O,-15%
COc1ccc(C(=O)N2CCC3(CC2)CC(N(C2CC2)S(C)(=O)=O)CCO3)cc1 (configuration not stated),-1%
COc1ccccc1-c1ccc2ncc(Nc3ccccc3F)n2n1,1%[70.6 µM]
Cc1csc(NC(=O)c2cnc3c(c2)N(C(=O)Cc2ccc(C(C)C)cc2)CCC3)n1,22µM*
CC(=O)Nc1ccc(CN2CCC3(CC2)CC(c2cccnc2)=NO3)cc1,-13%&11%
CC(C)CCNC(=O)N1CCN(C(=O)N2CC3CC(C2)[C@H]2CCCC(=O)N2C3)CC1 (some centres not stated),-1%
CC[C@H]1CN(C(=O)Nc2ccccc2)CC[C@H]1CC(=O)NCc1ccco1,2%[70.6 µM]

# Reformatted: results already given.
SMILES | NPR1 antag
CCOCCCNC(=O)N1CCn2nnc(CCC(=O)N3CCOCC3)c2C1 | 1%
CCOCc1nc(C2CCCN(C(=O)c3ccc(OC)nc3OC)C2)no1 (configuration not stated) | 0%

# Following part:
SMILES,NPR1 antag
O=C(CN1C(=O)NC2(CCCCC2)C1=O)Nc1ccc(C(F)(F)F)cc1,0%
CC(=O)N[C@H]1CCN(C(=O)C[C@@H]2[C@H](O)CC[C@@H]3[C@]4(C)CO[C@@H](CNC(=O)c5cc(C)on5)O[C@@H]4CC[C@]32C)C1,-2%
Cc1noc(-c2ccc(OC(F)(F)F)cc2)c1C(=O)NCc1ccccc1Cl,-7%
COC(=O)N1CCC2(C1)C(=NC1CCCCC1)NC(=O)N2c1cccc(OC)c1 (configuration not stated),20%
COc1cccc(N2CC(C(=O)NCCSC)NC2=O)c1 (configuration not stated),9%[70.6 µM]
O=C([C@@H]1C[C@H](Oc2ccccc2)CN1C(=O)c1ccoc1)N1CCOCC1,5%
CS(=O)(=O)N1C[C@H]2CCN(C(=O)c3cc(Cl)ccc3F)C[C@H]21,-1%
CC(NC(=O)CCc1ccccc1)C(=O)N1CCN(c2ccccn2)CC1 (configuration not stated),-1%
COc1cccc(-c2cc(C(=O)NCCC(C)n3ccnc3)[nH]n2)c1 (configuration not stated),2%
CCCN(CC1CCOC1)C(=O)Nc1ccccc1Cl (configuration not stated),0%
CN1CCC(NC(=O)c2ccc3c(c2)n(Cc2ccc(F)cc2)c(=O)c2ccnn23)CC1,3%
Cc1ccc(C(=O)N2CCC3(CC2)CC(N(Cc2ccccc2)C2CC2)CCO3)s1 (configuration not stated),-25%
CO[C@H]1COCCN(C(=O)c2cccc(F)c2)C1,5%[70.6 µM]
Cc1cnc(CC2CCNC2)n1CC1CC1 (configuration not stated),2%
CC(C)CC(=O)N1CCC2(CC1)OCC(C(=O)NCc1ccccc1)N2C(=O)c1ccccc1 (configuration not stated),4%
COc1cccc(CC(=O)N2CCCC(c3nc(C4CCOCC4)no3)C2)c1 (configuration not stated),18%
Cc1nc(CCNC(=O)Nc2ccccc2)no1,2%
COc1ccnc(-c2nnc3ccc(N4CCc5ccccc5CC4)nn23)c1,5%[70.6 µM]
CC(C)CCNC(=O)N1CCC(N2CC3CC(C2)[C@H]2CCCC(=O)N2C3)CC1 (some centres not stated),-13%
Cn1nc2n(c1=O)CCC(NS(=O)(=O)c1cccc3cccnc13)CC2 (configuration not stated),1%
CN1CC2(CCN(C(=O)C3CC3)CC2)CC1C(=O)N1CCOCC1 (configuration not stated),4%
O=C(Cc1ccc(OC(F)(F)F)cc1)N1CCC(c2n[nH]c(=O)n2-c2ccccc2)CC1,3%
CC(C)(C)CC(=O)NC[C@H]1OC[C@@H](NCc2ncc[nH]2)[C@@H]1O,2%[70.6 µM]
O=C(NCC1(COc2cnccn2)C[C@@H](O)[C@@H](O)C1)c1cccnc1 (some centres not stated),1%[70.6 µM]
CN(CC1CCOCC1)S(=O)(=O)c1ccc(Br)s1,-20%
SMILES,NPR1 antag
COCC(=O)N(C1CCOCC1)C1CCN(S(=O)(=O)c2ccccc2C)CC1,-2%
COCC(=O)N1CC[C@H](n2nnc(C(N)=O)c2C(N)=O)C[C@H]1C(=O)N[C@H](Cc1c[nH]c2ccccc12)C(N)=O,4%
COCCN1C(=O)[C@H]2CN(Cc3cccc(C(F)(F)F)c3)C[C@H]2C1=O,-9%
CC1(C(=O)NC2CC2)CCc2cnc(Nc3ccccc3)nc21 (configuration not stated),?
CC[C@H](C(=O)N1CCC2(CC1)Nc1ccccc1NC2=O)c1ccccc1,-21%
CCN(CC)c1cc(CCC(=O)NCc2ccccc2OC)ccn1,2%
Cc1noc(C)c1CCC(=O)N1CCn2nc(Cc3ccccc3)cc2C1,3%
CCC(C)NC(=O)C1(c2ccc(NC(C)=O)cc2)CCCCC1 (configuration not stated),3%
Cn1c(Cn2cccn2)nnc1C1CC(Nc2ncnc3ccsc23)C1 (configuration not stated),-8%
Fc1ccc(N2CCCN(CC3[C@H]4CNC[C@@H]34)CC2)cc1 (some centres not stated),-7%
CCNC(=O)N1CCC(C2CCN(C(C)=O)CC2)C1 (configuration not stated),4%
Cc1cc(C[C@@H]2COC[C@@H]2NC(=O)c2ccc3nc(C)sc3c2)on1,5%
CC(=O)c1ccc(NC(=O)Cn2c(N3CCc4ccccc4C3)nc(C)cc2=O)cc1,-27%
COCCNC(=O)C1COC2(CCN(C(=O)c3cccs3)CC2)N1C(=O)c1ccccc1 (configuration not stated),1%
C[C@H](NC(=O)C[C@@H]1c2nc(NC(=O)c3ccc(F)cc3)sc2C[C@@H]2[C@](C)(CO)[C@H](O)CC[C@]21C)c1ccccc1,-9%
CN(C)CCN(C)[C@H]1[C@@H]2OC[C@@H](O2)[C@@H](NC(=O)Nc2cccc(C#N)c2)[C@@H]1O,-21%[70.6 µM]
COCCN(C)C[C@@H]1CN(C(=O)c2ccc(-c3ccco3)cc2)C[C@@H]1CO,6%
COCCc1noc(C2CCCCN2C(=O)CN2C(=O)OC(C)(C)C2=O)n1 (configuration not stated),1%
CCn1cc(S(=O)(=O)N2CCC(N3C(=O)C(OC)C34CCOCC4)CC2)cn1 (configuration not stated),1%
CN(C)CCNC(=O)c1nc(-c2ccc(N3CCN(C)CC3)cc2)cc2c1ccn2C,-1%[70.6 µM]
CC1=NS(=O)(=O)N(C)C=C1C(=O)OCc1nc(-c2cnccn2)no1,2%
Cc1cccc(-n2cc(CN3C[C@@H](NS(C)(=O)=O)[C@H](C(C)C)C3)cn2)c1,3%
CCc1ccc(NC(=O)N2CCc3[nH]c4ccc(F)cc4c3C2)cc1,0%
Cn1c(Cn2cnc3c2C(C)(C)OC3(C)C)nnc1C1CC(N)C1 (configuration not stated),-2%
O=C(O)[C@@H]1CN(S(=O)(=O)N2CCOCC2)C[C@H]1c1cccnc1,-1%
SMILES,NPR1 antag
COc1ccc(NC(=O)N2C[C@@H]3C[C@H](C2)c2ccc(NC(=O)Nc4ccccc4OC)c(=O)n2C3)cc1,6%
CCOC(=O)c1ccc(NC(=O)Cn2c(C)cc3nc4n(c(=O)c32)CCCC4)cc1,2%
CCN1c2cc(C(=O)NCc3cc(F)ccc3F)ccc2C(=O)N2CCCCC21 (configuration not stated),5%
CC(C)CC(=O)N1CCCCCNC(=O)[C@@H]2CCCC[C@@H]21,-18%
COc1ccc(-c2noc(CN(C)CCOc3ccc(C)cc3)n2)c(OC)c1OC,1%
CS(=O)(=O)N1CCCN(C(=O)c2ccco2)CCNC(=O)CC1c1ccccc1 (configuration not stated),-2%
Cc1ccc(N2CCC(NC(=O)CC(C)C)C2=O)cc1C (configuration not stated),4%
COc1ccc(CNC(=O)[C@@H]2Cc3nc[nH]c3CN2C(=O)NC(C)C)cc1,3%[70.6 µM]
Cc1cc(NC(=O)CN2C(=O)NC(c3ccc(Cl)cc3)C3=C2COC3=O)no1 (configuration not stated),-1%
COCC1CN(C)CC12CCN(C(=O)c1cc(C)nn1C)CC2 (configuration not stated),2%
O=C(c1ccc2[nH]ncc2c1)N1CCOCC12CCN(Cc1ccccc1Cl)CC2,-4%[70.6 µM]
Cn1cc(CN2C[C@@H]3OCC(=O)N[C@@H]3C2)c2ccccc21,-1%[70.6 µM]
Cc1cc(CN2CCC(CO)(CN3CCCC3)CC2)ccc1F,-1%
COC[C@@H]1CN(Cc2cccc(C#N)c2)C[C@H]1c1ccncc1,1%
Cc1cnc(C2CCC2)n1CC1CCN(C(=O)Cc2cccnc2)CC1,-2%
COc1ccccc1CN1CCN2C(=O)N(C3CCOCC3)C[C@H]2C1,3%[70.6 µM]
CCc1ccc(N2CC(c3noc(-c4ccccc4)n3)CC2=O)cc1 (configuration not stated),1%
Cc1ccsc1CN1CCc2nc(N3CCOCC3)[nH]c(=O)c2CC1,0%
NC(=O)[C@@H](Cc1c[nH]c2ccccc12)NC(=O)[C@@]1(O)C[C@@H](O)[C@H](O)[C@@H](NC(=O)NC2CCCCC2)C1,-1%
Cc1ccccc1C(=O)N1CCC2(CC1)NC(=O)N(c1ccc(F)cc1)N2,2%
O=C1CCN(C(=O)[C@@H](Cc2ccccc2)NS(=O)(=O)c2cccc3cccnc23)CCOCCN1,-3%
COc1ccc(CCCn2ccnc2-c2cn(C3CCNCC3)nn2)cc1,4%
COc1ccc(C(=O)N2CCC3(CC2)CC(N(Cc2ccccc2)C2CC2)CCO3)cn1 (configuration not stated),-6%
Cc1cnc(C(=O)N2CCC3(CC2)NCCc2c3[nH]c3ccccc23)cn1,1%
O=C(CCn1ccn2nc3c(c2c1=O)CCCC3)N1CCN(c2ccc(Cl)cc2)CC1,1%
SMILES,NPR1 antag
CCn1c(Cn2ccnc2C)nnc1C1CCN(C(=O)C2(N)CC2)CC1,-2%
COc1cccc(CNC(=O)Cn2nc3n(c2=O)CCCCC3)c1OC,6%
O=C(c1ccc(Cl)s1)N1CCC(N(C(=O)C2CC2)C2CCOCC2)CC1,-1%
CCCCc1cc(C[C@@H]2C[C@H](NC(=O)C3CC3)C2(C)C)no1,-7%[70.6 µM]
COC[C@@H]1CNC[C@H]1C(=O)NC1CC1,-20%
Cc1nccn1CC(=O)NCC1CCN(c2cc(-c3ccc(F)cc3)[nH]n2)CC1,-1%
CNC(=O)[C@@H]1C[C@H](Oc2ccccc2)CN1C(=O)Cn1c(=O)oc2ccccc21,0%
Cc1ccc(S(=O)(=O)N2CCCC(CCC(=O)O)C2)cc1 (configuration not stated),1%

# Filtered by structure, the entries above containing an NH in an aromatic ring.
SMILES,NPR1 antag
COc1cccc(C(=O)N2CCC(c3nn(-c4ccccc4)c(=O)[nH]3)CC2)c1,-8%
COc1cccc(-c2cc(C(=O)NCCC(C)n3ccnc3)[nH]n2)c1 (configuration not stated),2%
O=C(Cc1ccc(OC(F)(F)F)cc1)N1CCC(c2n[nH]c(=O)n2-c2ccccc2)CC1,3%
CC(C)(C)CC(=O)NC[C@H]1OC[C@@H](NCc2ncc[nH]2)[C@@H]1O,2%[70.6 µM]
COCC(=O)N1CC[C@H](n2nnc(C(N)=O)c2C(N)=O)C[C@H]1C(=O)N[C@H](Cc1c[nH]c2ccccc12)C(N)=O,4%
CCc1ccc(NC(=O)N2CCc3[nH]c4ccc(F)cc4c3C2)cc1,0%
COc1ccc(CNC(=O)[C@@H]2Cc3nc[nH]c3CN2C(=O)NC(C)C)cc1,3%[70.6 µM]
O=C(c1ccc2[nH]ncc2c1)N1CCOCC12CCN(Cc1ccccc1Cl)CC2,-4%[70.6 µM]
Cc1ccsc1CN1CCc2nc(N3CCOCC3)[nH]c(=O)c2CC1,0%
NC(=O)[C@@H](Cc1c[nH]c2ccccc12)NC(=O)[C@@]1(O)C[C@@H](O)[C@H](O)[C@@H](NC(=O)NC2CCCCC2)C1,-1%
Cc1cnc(C(=O)N2CCC3(CC2)NCCc2c3[nH]c3ccccc23)cn1,1%
Cc1nccn1CC(=O)NCC1CCN(c2cc(-c3ccc(F)cc3)[nH]n2)CC1,-1%

# Screening results (PubChem)
